Screening data deposited in PubChem BioAssay by several laboratories.
GALR2 agonist – GALR2 receptor agonists, primary screen, cell-based; Galanin receptor type 2 (Homo sapiens), O43603; GALR2-expressing cells, agonist activation read-out; activation, %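 (tested at 5 µM)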; 0.48% of 140,000 active;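 active = above mean plus 3 SD of all compounds, about 5% in these data, not always enough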;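 also: 0% = vehicle buffer wells and 100% = reference agonist at full effect; tested in CHO reporter cells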
RGS16-Gao – modulators of RGS16 binding to Galphao, primary screen, biochemical, human proteins, multiplexed bead flow cytometry. bead-based flow cytometry RGS16-Galphao binding, fluorescence; actives lie on both sides. 0.38% of 220,000 active. Regulator of G-protein signaling 16 (Homo sapiens) + Guanine nucleotide-binding protein …. binding response (% of control), % at 10 µM;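 active = below 25% or above 175%, edge rows of some plates excepted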;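 also: Galphao activated by GDP with aluminum fluoride before binding; 100% = wells without compound and 0% = beads without RGS; some results beyond the cut were filed as inactive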
HSV augment – enhancers of HSV replication in host cells, fold increase, host cell viability; HSV replication augmentation in cells; maximum fold increase; 0.005% of 220,000 active; AID 1956, 2009;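 active = peak rise of 1.5-fold or more in the series; tested in PC3 cells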;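 also: first round at 10 µM; read as green reporter fluorescence; hits show the peak of a series up to 25 µM; 1 = signal of infected wells without compound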
PKD1 inh – inhibitors of human PKD1 kinase, biochemical, fluorescence polarization; 0.056% of 200,000 active; inhibition, %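 (about 10 µM by stock and volumes)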; PKD1 kinase fluorescence polarization assay; Serine/threonine-protein kinase D1 (Homo sapiens), Q15139;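 active = inhibition of 50% or more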;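 also: controls were vehicle for no effect and a reference inhibitor for full effect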
Target sequence (Q15139 whole entry, looked up): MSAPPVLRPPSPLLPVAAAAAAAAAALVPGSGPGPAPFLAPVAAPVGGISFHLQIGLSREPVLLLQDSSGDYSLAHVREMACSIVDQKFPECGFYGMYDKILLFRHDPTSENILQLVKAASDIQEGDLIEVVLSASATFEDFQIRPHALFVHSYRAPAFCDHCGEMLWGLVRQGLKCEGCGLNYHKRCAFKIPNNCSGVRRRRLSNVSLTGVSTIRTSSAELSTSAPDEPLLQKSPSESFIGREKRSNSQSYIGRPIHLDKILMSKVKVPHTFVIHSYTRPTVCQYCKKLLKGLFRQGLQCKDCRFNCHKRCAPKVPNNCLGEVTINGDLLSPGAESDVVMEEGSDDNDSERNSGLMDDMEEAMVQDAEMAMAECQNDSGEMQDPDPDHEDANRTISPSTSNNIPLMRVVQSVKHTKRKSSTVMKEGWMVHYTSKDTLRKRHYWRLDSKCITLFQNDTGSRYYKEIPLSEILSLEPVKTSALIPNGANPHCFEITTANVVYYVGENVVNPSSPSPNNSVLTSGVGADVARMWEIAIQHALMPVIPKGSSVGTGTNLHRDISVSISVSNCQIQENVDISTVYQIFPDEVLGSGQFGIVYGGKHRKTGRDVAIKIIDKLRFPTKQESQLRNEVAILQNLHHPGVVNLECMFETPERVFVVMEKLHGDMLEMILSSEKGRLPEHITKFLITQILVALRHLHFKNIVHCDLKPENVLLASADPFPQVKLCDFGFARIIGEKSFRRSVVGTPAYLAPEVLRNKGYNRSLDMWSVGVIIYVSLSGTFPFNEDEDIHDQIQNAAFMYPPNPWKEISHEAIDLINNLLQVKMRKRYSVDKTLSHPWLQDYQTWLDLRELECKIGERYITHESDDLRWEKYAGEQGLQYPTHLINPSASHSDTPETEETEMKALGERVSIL
Insulin prom inh – inhibitors of insulin promoter-driven GFP, primary screen, imaging, TRM-6 cells (human fetal islet line), eGFP reporter, cell count | 0.9% of 130,000 active | inhibition, % at 2 µM | reporter expression induced with tamoxifen;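 active = inhibition above the mean plus 3 SD, with well images judged a real hit on visual review, cut at about 60% in these data, passing the limit was not always enough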
Insulin prom inh cell count – recorded beside Insulin prom inh, whose call it bears; normalized cell count, %; measured here: cell count, toxicity; reference of the scale not given here;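 cells exposed to compound for 48 h; stained nuclei by imaging scaled within each plate; lower means fewer cells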
HSV augment primary fold – further read-out of HSV augment, marked with its call; fold increase; compound at 10 µM; measured here: primary screen fold increase 10 uM; tested in PC3 cells;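 GFP signal in the first replicate; 1 = infected wells without compound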
* = called active by the depositor; i = inactive; · = not tested or not shown. Compounds as they come, and some 1.2% of all compounds hit somewhere here.

Screens in order: GALR2 agonist	RGS16-Gao	HSV augment	HSV augment primary fold	PKD1 inh	Insulin prom inh	Insulin prom inh cell count
O=C(COC(=O)c1cc[n+]([O-])cc1)NCc1ccccc1Cl
  ·	98	i	1	-7	-67	94
CC(=O)c1ccc(NC(=O)c2cn(-c3ccccc3)nc2-c2ccncc2)cc1
  0.1	·	i	0.94	7	·	·
CC(C)CC(=O)O/N=C1\C(=O)N(c2ccccc2)c2ccccc21
  -4.6	101	i	0.83	3	·	·
CC(C)CNC(=O)C1c2ccccc2Oc2ccccc21
  ·	103	i	1.1	0	-80	72
CC(=O)Cc1cc(O)c2ccccc2c1OC(=O)c1ccccc1
  ·	93	·	·	5	-218	124
COc1ccc(Br)cc1/C=N/NC(=O)CN1CCN(Cc2ccccc2)CC1
  ·	108	i	0.98	·	·	·
O=C(Nc1nnc(-c2ccccc2Cl)o1)c1nc2ccccc2s1
  -0.2	112	i	0.87	-3	·	·
CCOC(=O)c1cc(C#N)c(SC)nc1-c1ccccc1
  -1.1	103	i	0.85	0	6	83
CC(Sc1nnc(COc2ccccc2)n1Cc1ccccc1)C(=O)O (stereo not given)
  ·	61	i	0.94	-2	·	·
Cc1ccccc1COC(=O)c1nn(-c2ccccc2)nc1N
  ·	99	i	0.98	-4	43	129
CC(C)CNc1nc(SCC(=O)Nc2ccccc2)nc(N2CCOCC2)n1
  ·	98	i	0.91	-4	·	·
Nc1nnc(Cc2ccccc2F)s1
  ·	102	i	0.9	-2	·	·
CCN1CCCc2cc(CN(CCN3CCOCC3)C(=S)Nc3ccc(OC)c(Cl)c3)ccc21
  ·	94	i	0.92	3	27	108
CCC(C(=O)NC1CCCC1)N(Cc1ccc2c(c1)OCO2)C(=O)c1snc(C(N)=O)c1N (stereo not given)
  -0.2	100	i	1	11	21	103
CCOC(=O)c1sc2nc(C)cc(C)c2c1N
  -0.5	99	i	1	-3	77*	123*
CC1=NN(/C(=N\c2nnc(C)s2)Nc2ccc(C(C)(C)C)cc2)[C@H](c2ccc(C)cc2)S1
  -0.7	105	i	0.81	0	21	158
O=C(COc1ccc2ccccc2c1)NNC(=O)Cc1cccc2ccccc12
  -3.2	110	i	0.89	-13	·	·
COc1ccccc1NS(=O)(=O)c1cc(NC(=O)c2sc3cc(Cl)ccc3c2Cl)ccc1C
  ·	102	i	1.2	3	-11	84
COc1cc(C(CCN2CCOCC2)c2c(OC)cc(OC)c3c2OC(=O)CC3c2ccc(N(C)C)cc2)cc(OC)c1OC (stereo not given)
  ·	101	i	0.86	·	·	·
Cc1nc(CCNS(=O)(=O)c2cccnc2)cs1
  ·	99	i	0.85	·	·	·

Ordered by value in PKD1 inh (ascending): some entries from above
compound,GALR2 agonist,RGS16-Gao,HSV augment primary fold,PKD1 inh
O=C(COC(=O)c1cc[n+]([O-])cc1)NCc1ccccc1Cl,·,98,1,-7
CC(C)CNc1nc(SCC(=O)Nc2ccccc2)nc(N2CCOCC2)n1,·,98,0.91,-4
CC(Sc1nnc(COc2ccccc2)n1Cc1ccccc1)C(=O)O (stereo not given),·,61,0.94,-2
CC(C)CC(=O)O/N=C1\C(=O)N(c2ccccc2)c2ccccc21,-4.6,101,0.83,3
CCC(C(=O)NC1CCCC1)N(Cc1ccc2c(c1)OCO2)C(=O)c1snc(C(N)=O)c1N (stereo not given),-0.2,100,1,11

(continued)
Screens in order: GALR2 agonist	RGS16-Gao	HSV augment	HSV augment primary fold	PKD1 inh	Insulin prom inh	Insulin prom inh cell count
Cn1cccc1-c1cc(C(=O)N2CCc3c([nH]c4ccccc34)C2c2ccccn2)[nH]n1 (stereo not given)
  ·	105	i	1	0	·	·
CCOC(=O)C1C(=O)CC(C)(O)C(C(=O)OCC)C1c1ccccc1 (stereo not given)
  -1.7	96	i	0.71	-3	69	147
COc1ccc(S(=O)(=O)NCCCN2CCOCC2)c2ccccc12
  -1.7	99	i	0.95	0	26	39
COc1nc(/C(N)=N/O)nc(N2CCCCC2)n1
  -3.5	89	i	1	-11	-79	112
Cc1ccc(-c2nc3nc4ccccc4nc3n2Cc2ccco2)cc1
  -0.8	96	i	0.99	-3	·	·
OC(COC(c1ccc(Cl)cc1)c1ccc(Cl)cc1)CN1CCCC1 (stereo not given)
  -2.4	93	i	1.1	-10	-34	114
O=c1c(-c2nc3ccccc3s2)cccn1Cc1ccc(Cl)cc1
  68*	173	i	1	-4	-3	167
CSc1nc2ccccc2n1CC(=O)Nc1c(C)cccc1C
  -3.7	131	i	0.91	13	-56	128
Cc1ccc2nc(NC(=O)c3ccc(N4C(=O)CCC4=O)cc3)sc2c1
  ·	48	i	1.1	-1	17	82
Cc1ccc(N2C(=O)[C@@H]3C(C(=O)CCN4C(=O)c5ccccc5C4=O)=NN[C@@H]3C2=O)cc1
  0.0	67	i	1.3	-2	·	·
COc1ccccc1Nc1nc(-c2cccc([N+](=O)[O-])c2)cs1
  ·	101	i	0.87	·	·	·
Fc1ccccc1Cn1nnc2c(-n3ccnc3)ncnc21
  -0.6	81	i	0.94	-9	·	·
COc1cc2nc(SCc3ccc(C(F)(F)F)cc3)n(Cc3cccs3)c(=N)c2cc1OC
  -1.5	96	i	0.81	1	-3	57
COc1ccccc1-c1coc2cc(OC(=O)/C=C/c3ccccc3)ccc2c1=O
  -1.0	96	i	0.87	-4	17	115
C=CCc1cccc2cc(C(=O)Nc3ccccc3C(=O)O)c(=O)oc12
  ·	101	i	0.95	0	·	·
COc1ccc(CCNC(=O)CNS(=O)(=O)c2cccs2)cc1OC
  -1.3	101	i	0.88	-11	10	140
Cc1cc(Cl)ccc1OCC(=O)NCCC(=O)O
  -0.4	103	i	1.1	-5	43	110
O=C(CN1CCOCC1)Nc1ccc(-c2nc3ccccc3[nH]2)cc1
  -2.1	96	i	0.91	-14	9	94
Cc1ccc(S(=O)(=O)N/N=C/c2cccc([N+](=O)[O-])c2)cc1
  -0.5	-8.2*	i	0.96	-12	37	71
O=C(Nc1ccc2c(c1)OCCO2)N1CCOCC1
  ·	102	i	1	-10	78*	99*
COCCOC(=O)C1=C(C)N=C2SCCC(=O)N2C1c1cccs1 (stereo not given)
  ·	125	i	0.9	1	-28	51
Cc1ccc(/C=N\NC(=O)c2ccc(Cn3cc(Br)c([N+](=O)[O-])n3)o2)o1
  ·	116	i	0.7	7	·	·
O=C(CN1CCCCC1)NNc1nc(-c2ccccc2)c2cc(Br)ccc2n1
  ·	92	i	0.84	·	·	·
COC(=O)c1ccc(NC(=O)CN(c2ccc(OC)cc2)S(C)(=O)=O)cc1
  -3.0	100	i	0.93	0	60	29
CCOCCCNC(=O)C(c1ccc(OC)cc1)N(Cc1ccc2c(c1)OCO2)C(=O)c1cnccn1 (stereo not given)
  ·	104	i	0.96	-7	-7	104
CCOC(=O)CSC1=NC(=O)/C(=C\c2ccc(Cl)cc2)S1
  -2.3	99	i	1.1	-15	-13	146
O=C(NCc1ccccn1)C(C(=O)c1ccc(F)cc1)n1ccccc1=O (stereo not given)
  -0.7	101	i	0.83	-6	-1	184
COc1ccc(NC(C)(C)c2nnnn2-c2c(C)cccc2C)cc1
  ·	100	i	1.2	·	·	·
O=C(Nc1ccc2oc(-c3cccnc3)nc2c1)c1ccc([N+](=O)[O-])o1
  ·	103	i	0.58	-3	·	·
COc1cc(C(=O)Nc2ccccn2)cc(OC)c1OC
  -1.7	102	i	0.88	-6	-10	129
COc1ccc(CNC(=O)CSc2nnc3c(Cl)cc(C(F)(F)F)cn23)cc1OC
  0.2	100	i	1	-3	·	·
COc1ccc(N2CCN(c3oc(COc4ccccc4Cl)nc3C#N)CC2)cc1
  -0.6	121	i	0.86	-7	·	·
Cc1ccc(NC(=O)CS(=O)(=O)c2cn(C)c3ccccc23)c(C)c1
  ·	95	i	1.1	·	·	·
CCOC(=O)Cc1csc(NC(=O)CCc2ccc(S(=O)(=O)N3CCOCC3)cc2)n1
  -0.7	87	i	0.97	6	·	·
COC1OC(COC(=O)CNC(=O)OC(C)(C)C)C(O)C(O)C1O (stereo not given)
  -0.5	100	i	1	2	15	112
CN(C)/C=C(\C(=O)c1ccccc1)c1nnnn1-c1ccc(F)cc1
  ·	99	i	1	·	·	·
Cc1ccc(-n2c(C)nc3c(cnn3-c3ccc(F)cc3)c2=O)cc1
  -1.2	101	·	·	-5	34	75
CCOC(=O)N1CCC(N(CCOC)C(=O)Nc2ccc(CC)cc2)CC1
  -1.6	58	i	0.88	-12	·	·
O=C(CNC1CC1)Nc1cc(C(F)(F)F)ccc1Cl
  ·	101	i	1	·	·	·
C[C@H](Nc1ncnc2sc3c(c12)CCC3)C(=O)O
  -2.6	97	·	·	-1	-81	66
CCOC(=O)c1[nH]c(C)c(C(=O)Nc2ccc3c(c2)OCCO3)c1C
  -1.6	98	i	0.93	-4	·	·
CC(C)CNC(=O)c1ccc(Cl)c(Cl)c1
  -0.1	98	i	1	-4	-20	108
CC1CCc2nc(/C(C#N)=C/c3cccnc3)sc2C1 (stereo not given)
  ·	100	i	0.94	-2	·	·
COCCCn1cnc2c(c1=O)c1nc3ccccc3nc1n2-c1ccccc1
  -0.8	94	i	0.85	-15	91*	112*
C#CC[N+]1(CC#Cc2cccc(C)c2)CCCCC1
  ·	103	i	1.1	-5	·	·
COC(=O)c1ccccc1NC(=O)c1noc2c1CCCC2
  -0.2	101	i	0.95	-3	·	·
Cc1ccc(S(=O)(=O)N(CC(=O)N2CCc3ccccc3C2)c2ccc(Cl)c(Cl)c2)cc1
  -1.4	98	i	0.99	-14	-230	120
Cc1ccc(C(=O)O/N=C/C2=C(Cl)c3ccccc3CC2)cc1
  -4.1	66	i	0.93	-4	-157	140
CC(C)(CNC(=S)NCCc1ccccc1)CNC(=S)NCCc1ccccc1
  -1.7	110	i	0.68	-10	-30	41
O=c1oc2ccccc2c(Cl)c1CN1CCCCC1
  ·	152	i	0.89	4	·	·
CCCCOc1ccc(/C(O)=C2/C(=O)C(=O)N(CCCOC)C2c2ccncc2)cc1C (stereo not given)
  -1.8	93	i	0.79	5	·	·
CCOC(=O)CSc1nc(C)c2cc(OC)ccc2n1
  -2.6	101	i	0.98	-9	27	123
Cc1ccnc(SCC(=O)Nc2sc3c(c2C#N)CCCC3)n1
  -2.3	100	i	0.87	6	21	59
Cc1cccc(NC(=O)Cn2cnc3c(oc4ccccc43)c2=O)c1
  ·	109	i	0.97	-7	64	127
NC(=O)[C@@H]1CC2(CC(c3cccc(NC(=O)COc4ccc(Cl)cc4)c3)=NO2)CN1C(=O)COc1ccc(Cl)cc1 (stereo not given in full)
  ·	101	i	0.75	·	·	·
CCCCn1c(SCC(N)=O)nnc1-c1ccco1
  -3.0	104	i	0.92	0	29	87
O=C(N/N=C/C=C\c1ccco1)c1ccccn1
  ·	104	i	0.63	·	·	·
CCn1c(CN2c3ccccc3Sc3ccccc32)n[nH]c1=S
  ·	99	i	0.88	·	·	·
O=C(N/N=C/c1ccccc1[N+](=O)[O-])C(=O)N1CCCC1
  ·	108	i	1.1	-5	·	·
COc1ccc(CC(=O)N/N=C(\C)CC(=O)NCc2ccco2)cc1OC
  ·	99	i	0.88	·	·	·

New compounds follow.
Screens in order: GALR2 agonist	RGS16-Gao	HSV augment	HSV augment primary fold	PKD1 inh	Insulin prom inh	Insulin prom inh cell count
CC1=NN(C(=O)c2ccc(Br)cc2)C(O)(C(F)(F)OC(F)(F)F)C1 (stereo not given)
  -2.9	99	·	·	1	·	·
CCCCCn1c(=O)[nH]c2cc(C(=O)NCCc3ccc(OC)c(OC)c3)ccc2c1=O
  -2.5	96	i	1.1	-2	11	122
CC1(C)N=C(c2ccc(Cl)cc2Cl)C(=O)N1
  -0.8	106	i	1.1	0	·	·
Cc1nc2c(oc3ccccc32)c(=O)o1
  -2.0	96	·	·	12	0	47
Cc1csc(NC(=O)CSc2nncc(=O)n2N)n1
  ·	111	i	0.96	-5	0	50
COC(=O)c1sc(N)c(C(=O)OC)c1COC(=O)CCNS(=O)(=O)c1ccc(C)cc1
  -1.4	105	i	0.79	-4	-33	110
CN(C)CCOc1ncnc2c1oc1ccccc12
  -1.8	78	i	0.8	10	33	137

2 of the compounds above, with each value named.
SMILES: CC1(C)N=C(c2ccc(Cl)cc2Cl)C(=O)N1
  GALR2 agonist: -0.8
  RGS16-Gao: 106
  HSV augment: i
  HSV augment primary fold: 1.1
  PKD1 inh: 0
  Insulin prom inh: ·
  Insulin prom inh cell count: ·
SMILES: Cc1nc2c(oc3ccccc32)c(=O)o1
  GALR2 agonist: -2.0
  RGS16-Gao: 96
  HSV augment: ·
  HSV augment primary fold: ·
  PKD1 inh: 12
  Insulin prom inh: 0
  Insulin prom inh cell count: 47
